Screens as filed in PubChem.
PINK1 expr mod: changes PINK1 expression | PINK1 immunofluorescence, high-content cytometry, 24 h | Potency, µM (top dose mostly 76.6 µM), for inactives: top-dose activation (PINK1 increase), usual class: activators | actives 0.2% (n = 410,000); active = well fitted activation curve with a large enough effect; inconclusive = small, poorly fitted or top-dose-only effect; inactive = flat fitted curve, though single readings scatter; cell line not stated here;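 also: potency is read from the fitted curve at half-maximal effect; % of control where 0% means no effect; nearly all actives have a fitted effect of over 65% in size; a mitochondrial uncoupler was the plate control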
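Stable cell line treated 24 h with compounds at 5 concentrations (CCCP controls), then fixed and immunostained for PINK1 plus nuclear and cell stains; PINK1 immunofluorescence quantified by laser-scanning microplate cytometry.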
TRPML1 agonist: activates the human TRPML1 channel; Q9GZU1; TRPML1-expressing cells, Ca2+ dye fluorescence, FDSS; host cell line not named in the record; reference of the full effect not given here; actives 0.12% (n = 410,000); activation, % (test concentration not listed); AID 624414; in the data active = activation above about 50%; inconclusive = about 30% to 50%; inactive = below about 30%; also: 0% is about no effect; the text of the record puts the active cut at 80%
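Tetracycline-induced TRPML1-DL cells are seeded and incubated overnight before loading with a no-wash Ca2+ dye and quencher. Agonist activity is taken from the 110 s fluorescence read following compound pin-transfer on an FDSS, before EC80 54-4 challenge.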
D2 potentiator: human D2 receptor positive allosteric modulation; P14416; DiscoveRx D2 beta-arrestin cells, luminescence, 90 min; 100% = 57 uM dopamine signal; potentiation, % (test concentration not listed); actives 0.23% (n = 360,000); AID 624464; active = potentiation of 50% or more; inconclusive = 30% to 50%; inactive = 30% or less;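 also: compound concentration not given in the record; tested on top of an EC20 dose of dopamine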
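PathHunter beta-arrestin assay in DiscoveRx D2 cells. Compounds were added with an EC20 of dopamine (50 nM final) for 90 min at 37 deg C. Luminescence was read 1 h after detection reagent, with 57 uM dopamine as the EC100 control.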
Six1-Eya2 inh: inhibitors of human Six1/Eya2 interaction | Q15475+O00167 | AlphaScreen GST-Six1/His-Eya2 binding, biochemical; active compounds read low; control for the full effect not named in the record | activity change, % (test concentration not listed) | actives 0.56% (n = 360,000); in the data active = activity change below about -65%; inconclusive = about -30% to -65%; inactive = above about -30%; also: % is scaled to controls: 0 for no effect and ±100 for the full control effect
Target sequence (O00167 whole entry, looked up): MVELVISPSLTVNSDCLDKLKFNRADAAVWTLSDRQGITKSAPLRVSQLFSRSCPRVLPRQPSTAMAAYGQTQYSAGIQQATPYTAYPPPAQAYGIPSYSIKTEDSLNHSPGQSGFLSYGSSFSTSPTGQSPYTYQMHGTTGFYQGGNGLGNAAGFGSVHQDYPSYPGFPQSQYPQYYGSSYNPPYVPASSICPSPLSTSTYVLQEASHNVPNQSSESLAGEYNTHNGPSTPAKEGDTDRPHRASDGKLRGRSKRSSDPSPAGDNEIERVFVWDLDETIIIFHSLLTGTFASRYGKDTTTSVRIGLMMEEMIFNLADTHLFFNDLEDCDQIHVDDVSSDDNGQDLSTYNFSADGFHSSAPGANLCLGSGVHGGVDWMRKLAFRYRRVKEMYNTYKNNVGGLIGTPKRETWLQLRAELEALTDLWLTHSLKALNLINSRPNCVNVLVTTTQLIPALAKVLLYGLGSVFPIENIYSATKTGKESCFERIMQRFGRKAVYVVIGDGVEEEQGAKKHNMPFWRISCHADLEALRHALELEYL
Target sequence (Q15475 whole entry, looked up): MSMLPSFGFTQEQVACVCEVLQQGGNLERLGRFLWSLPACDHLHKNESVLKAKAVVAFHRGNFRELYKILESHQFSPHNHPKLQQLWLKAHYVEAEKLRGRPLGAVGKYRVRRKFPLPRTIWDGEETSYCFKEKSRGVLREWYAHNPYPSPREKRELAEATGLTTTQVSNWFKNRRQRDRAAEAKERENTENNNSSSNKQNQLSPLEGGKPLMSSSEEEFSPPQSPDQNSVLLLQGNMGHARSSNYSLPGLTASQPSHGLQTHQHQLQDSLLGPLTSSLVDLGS
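Six1/Eya2 binding was read as AlphaScreen signal after compounds were pinned into GST-Six1 plus His-tagged Eya2 (5X stock 250/500 nM) in pH 8.0 Tris/NaCl/TCEP buffer, beads added, then incubated 1 h, 37 C, dark.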
D2 ag: activates the human D2 dopamine receptor; DiscoveRx PathHunter D2 beta-arrestin, luminescence, 90 min; 100% = 57 uM dopamine signal; activation, % (concentration not given with the values); actives 0.084% (n = 360,000); AID 624465; in the data active = activation above about 40%; inconclusive = about 15% to 40%; inactive = below about 15%; also: compound concentration not given in the record; the text of the record calls up to 30% inactive
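Agonist mode: compounds alone added to overnight-plated D2 PathHunter cells for 90 min at 37 C, with 57 uM final dopamine (EC100) defining full response. Beta-arrestin recruitment detected by chemiluminescent reagent, read after 1 h at ambient temperature.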
CtBP-E1A inh: blocks the CtBP interaction with E1A; AlphaScreen GST-E1A/His-CtBP binding, 1536-well; active compounds read low; control for the full effect not named in the record; activity change, % (no concentration beside the values); actives 0.49% (n = 340,000); in the data active means activity change below about -65%; inconclusive means about -30% to -65%; inactive means above about -30%; also: % is scaled to controls: 0 for no effect and ±100 for the full control effect
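AlphaScreen with 125 nM GST-E1A and 125 nM His-CtBP (5X stocks) in Tris pH 8.0, 300 mM NaCl, BSA, Tween 20, TCEP. Compounds preincubated 2 h at 37 deg C, then glutathione donor/nickel acceptor beads added for 1 h at 37 deg C in dark.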
Numbers without * were called inactive; ? = inconclusive; / = no result given; & = joins results of further samples; [ ] = remark or other dose.

SMILES	PINK1 expr mod	TRPML1 agonist	D2 potentiator	Six1-Eya2 inh	D2 ag	CtBP-E1A inh
CC1CCC(C(C)C)C(OCC(O)CN2CCOCC2)C1 (stereo not drawn)	0.6%[38.3 µM]	-0.3	-1	-8	0.8	-19
O=C(NCc1ccco1)C1CC(=O)N(c2cccc(Cl)c2)C1 (stereo not drawn)	0.3%	-0.7	-2	-4	2.1	1
O=C(NNc1c(Cl)cccc1Cl)c1sccc1Cl	3.9%	-0.1	0	-13	1.0	12
Cc1ccc(C2CC(=O)C=C(O)C2)cc1 (stereo not drawn)	0.1%	2.1	-10	-1	-5.8	3
Cc1nn2c(-c3cccnc3)ccnc2c1-c1ccccc1	-1.6%	-0.3	-2	-2	-3.5	/
CC1Cc2ccccc2N1C1=CC(=O)CC(C)(C)C1 (stereo not drawn)	2.9%	0.1	-2	0	1.3	0
CC12CCC(=O)N1C(C(=O)NNC(=O)COc1ccccc1Cl)CS2 (stereo not drawn)	-0.6%	0.1	-6	6	10	3
COc1ccc2sc(NC(C)=O)nc2c1	0.7%	0.1	8	1	1.2	0
CCC(CC)C(=O)N(C)c1c(C)nc2c(OCCOc3ccc(F)cc3)cccn12	1.6%	-0.5	-10	5	3.4	1
O=C(OCC(=O)N1CCC(Cc2ccccc2)CC1)c1ccc(O)cc1	2.9%	-0.7	-13	-1	4.1	-2
O=C(NCc1ccccc1)c1cc2ccc(O)cc2oc1=O	-0.5%	1.2	11	6	9.0	-6
Cc1c(C(=O)O)sc2nc3n(c(=O)c12)CCCCC3	0.3%	-0.1	-1	-2	-1.5	1
COc1ccc(C(CCN(Cc2ccc(OC)c(OC)c2)C(C)=O)c2ccccc2)cc1 (stereo not drawn)	0.1%	5.3	-4	-12	0.2	/
CC(=O)NS(=O)(=O)c1ccc(NC(=O)CCc2ccccc2)cc1	-1.5%	0.1	2	11	0.6	13
COCCNC(=O)c1ccc2c(c1)CCN2S(C)(=O)=O	0.9%	0.2	1	6	2.2	12
O=C(c1ccc(S(=O)(=O)Cc2ccccc2F)c([N+](=O)[O-])c1)N1CCCCCC1	3.6%	0.5	15	-18	9.4	-13
COc1cccc(-n2cnc3cccc(N)c32)c1	/	-0.2	19	-9	-3.4	-12
COCCNC(=O)COC(=O)c1ccc(OCC(=O)Nc2ccccc2OC)c(OC)c1	2.4%	0.2	-4	8	-2.3	/
CCCc1nn2c(=O)cc(CSCC(=O)Nc3cccc(C)c3)nc2s1	0.8%	-0.3	-10	3	-1.7	-4
CCCSc1nnc(Sc2nnnn2-c2ccccc2)s1	11%[38.3 µM]	0.9	-12	6	-2.1	3
Cc1cc(Cl)c(OCCCNCc2ccccc2)c(Br)c1	21%	-0.3	-30	1	-4.4	5
COc1ccc(N2CCN(C(=O)c3cc(C)oc3C)CC2)cc1	0.7%	-0.7	-7	-9	-1.9	-11
Cn1c(CCc2ccc(N)cc2)nc2ccccc21	0.4%	-0.1	-7	23	-0.1	-22
Cc1ccc(/C=N/NC(=O)CCCOc2ccc(Cl)cc2Cl)cc1	2.3%	-0.2	-19	2	1.3	11
CC(C)Oc1cccc(C(=O)C2CCCN(Cc3cccn3-c3cccnc3)C2)c1 (stereo not drawn)	1.0%	2.7	-16	-2	-0.3	-16

Next records:
SMILES	PINK1 expr mod	TRPML1 agonist	D2 potentiator	Six1-Eya2 inh	D2 ag	CtBP-E1A inh
C=C1CCC[C@]2(C)C[C@H]3OC(=O)C(CN(Cc4ccc(OC)c(OC)c4)CC(C)O)[C@H]3CC12 (stereo partly drawn)	-0.6%	-1.0	-1	-1	5.6	/
CN1CCN(c2ccc(CNS(=O)(=O)Cc3cccc(C(F)(F)F)c3)cc2)CC1	6.2%	-0.6	-26	1	-6.2	/
CS(=O)(=O)c1ccc(Cl)c(NC(=O)C2CC(=O)N(Cc3ccccc3)C2)c1 (stereo not drawn)	-0.1%	-1.5	-25	-2	-4.0	5
Cc1ccc(CNC(=O)CSc2nc3n[nH]c(C)c3c(=N)n2-c2cccc(C)c2)cc1	-0.3%	3.1&2.9	0	?	0.4	?
O=C1CCC(C(=O)Nc2cccc(Oc3ccccc3)c2)=NN1	1.4%	1.5	1	6	2.1	6
CC(NC(=S)Nc1ccc(OC(F)F)cc1)c1ccc(F)cc1 (stereo not drawn)	?	2.0	-7	3	-1.8	/
Clc1ccc(CNCCCSc2ncccn2)cc1	-1.0%	-0.6	-25	-1	-11	9
CCCC(=O)C1=C(O)C(C(=O)OC)C(C)(C)CC1=NCc1ccccc1 (stereo not drawn)	1.0%	3.0	1	8	-3.1	7
CCN(CC)C(=O)[C@H]1CC(CC(=O)NCc2ccco2)C(=O)N2CCc3c([nH]c4ccc(OC)cc34)[C@]12C (stereo partly drawn)	-0.5%	-0.4	/	3	-1.7	-7
CCOC(=O)c1cc(OC(=O)c2ccccc2OC)n(-c2ccccc2)n1	-1.1%	0.9&2.1	3	-2	-2.6	-3
O=S(=O)(c1ccc(Cl)cc1)N1CCN(Cc2cccnc2)CC1	1.7%	0.2	-4	-4	2.6	4
Cc1ccccc1N1Cc2ccccc2C1	-1.1%	0.8	1	1	-2.5	3
O=S(=O)(NCC(c1cccnc1)N1CCN(c2ccc(F)cc2)CC1)c1ccccc1 (stereo not drawn)	1.1%[38.3 µM]	-0.6	-6	-6	2.7	-1
Cc1ccc(NC(=O)c2cccc3c2-c2ccccc2C3=O)cc1C	8.0%[38.3 µM]	0.7	-6	?	-1.3	?
CCCCOC(=O)C1C2C=CC3(CN(CCc4ccccc4)C(=O)C13)O2 (stereo not drawn)	0.8%	0.7	-4	4	2.7	4
COCCn1c(SCC(=O)Nc2nnc(C)s2)nnc1-c1cc2ccccc2cc1O	0.8%	1.8	-9	-1	-5.1	-8
Cc1cc(C)c2cc(C#N)c(SCC(=O)Nc3cc(C)on3)nc2c1	12%	-0.3	0	0	0.4	-10
Cc1cc(/C(=N/O)C(C)(C)NO)ccc1Cl	-2.9%	-0.9	?	1	3.7	3
CC(C)(C)OC(=O)N1CCCC(C(=O)Nc2cccc(C(=O)NCCCCc3ccccc3)c2)C1 (stereo not drawn)	1.4%	1.7	-3	0	0.4	-1
CCN1N=C(c2cc(Cl)sc2Cl)CSC1=O	0.6%	4.9	7	18	-0.8	20
Cc1ccccc1NC1=NC2(CCCC2)N=C(N)N1	1.1%	-0.7	-5	-3	-4.9	2
Cc1cccc(N2CCN(CC(=O)Nc3ccccc3[N+](=O)[O-])CC2)c1C	-1.5%[38.3 µM]	0.1	-6	-12	-0.6	-18
CCCc1c(OCCCCc2nn[nH]n2)ccc(C(C)=O)c1O	1.1%	-0.1	10	-8	-5.1	-4
O=C(Oc1ccc(N(Cc2cccs2)C2=NS(=O)(=O)c3ccccc32)cc1)c1ccccc1F	/	0.0	-17	6	-2.6	0
O=C(NCc1ccc2c(c1)OCO2)c1cccc(S(=O)(=O)N2CCOCC2)c1	-3.0%[38.3 µM]	-0.4	-5	0	-1.8	0

6 compounds from above, limited to D2 potentiator:
Compound	D2 potentiator
Cc1cc(/C(=N/O)C(C)(C)NO)ccc1Cl	?
CC(C)(C)OC(=O)N1CCCC(C(=O)Nc2cccc(C(=O)NCCCCc3ccccc3)c2)C1 (stereo not drawn)	-3
CCN1N=C(c2cc(Cl)sc2Cl)CSC1=O	7
Cc1ccccc1NC1=NC2(CCCC2)N=C(N)N1	-5
Cc1cccc(N2CCN(CC(=O)Nc3ccccc3[N+](=O)[O-])CC2)c1C	-6
CCCc1c(OCCCCc2nn[nH]n2)ccc(C(C)=O)c1O	10

(further entries)
SMILES	PINK1 expr mod	TRPML1 agonist	D2 potentiator	Six1-Eya2 inh	D2 ag	CtBP-E1A inh
C[C@@H]1CCC[C@]2(O[C@H](CCO)C[C@@H](O)[C@@H]2O)O1	1.2%	0.4	-9	2	-2.8	4
CN(C)N=Nc1ccc(S(N)(=O)=O)cc1	-1.4%	2.0	-3	0	1.4	6
CN1C(=O)C(O)(CC(=O)c2cccnc2)c2ccccc21 (stereo not drawn)	-3.6%[38.3 µM]	-0.9	3	1	1.4	8
CCOC(=O)NC1(C(F)(F)F)C(=O)N(Cc2ccccn2)C2=C1C(=O)CC(C)(C)C2 (stereo not drawn)	0.6%	0.0	3	13	1.7	-3
Cc1[nH]c(=O)[nH]c(=O)c1NC(=O)c1sc2nc3c(C)cccc3cc2c1N	1.5%	1.0	1	-13	-3.5	-12
Cc1ccc(Oc2cc(NN3CCCCC3)c([N+](=O)[O-])cc2[N+](=O)[O-])c(Cl)c1	3.5%	-0.7	-4	-15	-3.8	-7
O=C(Nc1cccc(S(=O)(=O)N2CCCCC2)c1)C1CC1	1.4%	-0.9	-3	2	6.6	8
O=C(NN=Cc1ccc(F)cc1)C1CC1	0.9%	1.3	1	3	2.8	6
CCSC(C)CC1C/C(=N/O)c2c(C)noc2C1 (stereo not drawn)	5.6%[38.3 µM]	-0.7	3	-2	0.4	3
CCc1ccc(OCC(=O)Nc2ccc(S(=O)(=O)N3CCCC3)cc2)c(Br)c1	14%[38.3 µM]	1.7	-8	3	2.7	3
CC(C)(C)c1cc2nc(NCCOc3ccccc3)ccn2n1	5.2%	-0.8	-13	4	4.1	-1
COc1ccc2c(=O)c3c(=O)n(Cc4ccco4)c(-c4cc(OC)c(OC)c(OC)c4)nc3oc2c1	6.4%	-0.1	-4	-2	1.9	-12
CCOC(=O)c1ccc(NC(=O)Nc2ncccc2C)cc1	5.5%	2.9	-7	5	1.9	-12
O=S1(=O)CC(O)C(NCc2cccnc2)C1 (stereo not drawn)	/	0.8	-6	-5	-1.4	-14
O=C(O)c1cc(C(F)(F)F)nc2c(C(F)(F)F)cccc12	-1.5%	-0.1	-2	1	0.2	0
NC(=O)CCC(NC(=O)c1ccc(Cl)cc1)C(=O)NCCc1ccc2c(c1)OCCO2 (stereo not drawn)	0.9%	0.6	-11	-1	-5.9	8
CC(C)[C@H](NC(=O)c1ccccc1F)C(=O)Nc1ccc2c(c1)OCO2	2.2%	1.1	-4	-1	-0.4	-4
COc1ccc(OCC(=O)N2CCc3c([nH]c4ccccc34)C2c2ccccn2)cc1 (stereo not drawn)	-0.2%	1.5	-10	3	-3.0	/
COc1cc(C(=O)N2C[C@H]3CC[C@H]2C3)ccc1OC1CCN(C(C)=O)CC1	3.5%	-0.7	-12	3	-0.8	1
Cc1sc(NC(=O)CN2CCN(c3ccccn3)CC2)c(C#N)c1C	2.6%	0.2	1	-1	0.3	-6
COc1ccc(CCN=C(N)NS(=O)(=O)c2ccc(C)cc2)cc1	-2.1%	2.8	-17	1	1.6	5
CC1(C2CCCC2)NC(=O)NC1=O (stereo not drawn)	0.6%	0.4	-4	12	-6.1	0
COc1cc(NS(=O)(=O)c2cn(C)cn2)cc(OC)c1	1.0%	0.7	-5	1	-0.2	/

Record cards, from the list above. Order of values: PINK1 expr mod	TRPML1 agonist	D2 potentiator	Six1-Eya2 inh	D2 ag	CtBP-E1A inh
`O=C(Nc1cccc(S(=O)(=O)N2CCCCC2)c1)C1CC1` is listed with 1.4%	-0.9	-3	2	6.6	8
`COc1ccc2c(=O)c3c(=O)n(Cc4ccco4)c(-c4cc(OC)c(OC)c(OC)c4)nc3oc2c1` is listed with 6.4%	-0.1	-4	-2	1.9	-12
